PKD1 kinase inh – blocks activity of human protein kinase D1 | Q15139 | PKD1 kinase fluorescence polarization assay | inhibition, %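 (about 10 µM by stock and volumes)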 | 200,000 tested, 0.056% active | AID 797;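 active means inhibition of 50% or more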;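 further: controls were vehicle for no effect and a reference inhibitor for full effect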
Target sequence (Q15139 whole entry, looked up): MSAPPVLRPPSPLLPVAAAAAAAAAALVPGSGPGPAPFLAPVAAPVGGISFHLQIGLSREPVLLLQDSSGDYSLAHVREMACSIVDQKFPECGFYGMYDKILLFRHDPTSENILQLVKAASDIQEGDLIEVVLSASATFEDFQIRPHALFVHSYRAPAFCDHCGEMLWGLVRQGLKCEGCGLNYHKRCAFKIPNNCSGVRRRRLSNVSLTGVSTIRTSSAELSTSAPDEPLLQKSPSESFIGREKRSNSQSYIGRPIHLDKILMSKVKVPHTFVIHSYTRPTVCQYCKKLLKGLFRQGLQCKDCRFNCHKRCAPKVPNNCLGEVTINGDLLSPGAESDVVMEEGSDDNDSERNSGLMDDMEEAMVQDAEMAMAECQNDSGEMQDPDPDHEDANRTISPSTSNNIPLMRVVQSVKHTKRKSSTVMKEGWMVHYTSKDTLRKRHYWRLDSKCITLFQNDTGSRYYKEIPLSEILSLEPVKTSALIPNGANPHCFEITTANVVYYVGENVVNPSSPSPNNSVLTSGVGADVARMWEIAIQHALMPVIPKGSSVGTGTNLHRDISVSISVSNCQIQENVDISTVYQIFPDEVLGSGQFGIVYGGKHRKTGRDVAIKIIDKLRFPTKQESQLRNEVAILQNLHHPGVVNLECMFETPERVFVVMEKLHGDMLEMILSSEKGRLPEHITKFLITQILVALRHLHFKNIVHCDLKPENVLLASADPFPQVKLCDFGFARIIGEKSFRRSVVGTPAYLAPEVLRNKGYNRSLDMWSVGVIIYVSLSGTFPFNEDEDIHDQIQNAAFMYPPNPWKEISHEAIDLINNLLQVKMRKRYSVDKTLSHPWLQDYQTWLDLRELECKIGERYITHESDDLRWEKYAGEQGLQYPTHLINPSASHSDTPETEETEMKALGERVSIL
RGS16-Gao HTS – modulates binding between human RGS16 and Galphao; bead-based flow cytometry RGS16-Galphao binding, fluorescence; actives lie on both sides; binding response (% of control), % at 10 µM; 220,000 tested, 0.38% active;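 active means below 25% or above 175%, edge rows of some plates excepted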;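 further: Galphao activated by GDP with aluminum fluoride before binding; 100% = wells without compound and 0% = beads without RGS; some results beyond the cut were filed as inactive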
HSV replic up – increases HSV replication in cells. HSV replication augmentation in cells, fold increase. maximum fold increase. 220,000 tested, 0.005% active;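 active means peak rise of 1.5-fold or more in the series; tested in PC3 cells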;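 further: first round at 10 µM; read as green reporter fluorescence; hits show the peak of a series up to 25 µM; 1 = signal of infected wells without compound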
INS promoter inh – TRM-6 insulin promoter activity inhibition; 130,000 tested, 0.9% active; TRM-6 cells (human fetal islet line), insulin promoter-eGFP reporter, imaging; reporter expression induced with tamoxifen; inhibition, % at 2 µM; AID 1273;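 active means inhibition above the mean plus 3 SD, with well images judged a real hit on visual review, cut at about 60% in these data, passing the limit was not always enough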
GALR2 ag – GALR2 (human) receptor agonism | O43603 | AID 803 | activation, %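 (tested at 5 µM)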 | GALR2-expressing cells, agonist activation read-out | 140,000 tested, 0.48% active;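 active means above mean plus 3 SD of all compounds, about 5% in these data, not always enough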;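 further: 0% = vehicle buffer wells and 100% = reference agonist at full effect; tested in CHO reporter cells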
INS promoter inh cell count – further read-out of INS promoter inh, marked with its call; normalized cell count, %; measured here: cell count, toxicity; reference of the scale not given here;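 cells exposed to compound for 48 h; stained nuclei by imaging scaled within each plate; lower means fewer cells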
HSV replic up primary fold – second read-out of HSV replic up, no call of its own (marks repeat the call); fold increase; compound at 10 µM; measured here: primary screen fold increase 10 uM; tested in PC3 cells;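 GFP signal in the first replicate; 1 = infected wells without compound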
Active calls of the source: *; i = inactive; . = not tested or not shown. Random draw from the library. Share with any hit: about 1.3%.

SMILES	PKD1 kinase inh	RGS16-Gao HTS	HSV replic up	HSV replic up primary fold	INS promoter inh	INS promoter inh cell count	GALR2 ag
CCOC(=O)C1=C(C)Nc2sc(C(=O)c3ccc(F)cc3)c(N)c2C1c1ccc(C(=O)OC)cc1 (stereo not given)	4	104	i	1.2	.	.	-0.8
Cc1ccc(N(CC(O)Cn2c3ccccc3c3ccccc32)S(C)(=O)=O)c(C)c1 (stereo not given)	9	105	i	0.75	-37	129	-0.9
COc1ccccc1N1CCN(C(c2ccc(C)cc2)c2nnnn2C(C)C)CC1 (stereo not given)	1	101	i	0.93	36	98	-2.3
CCCC(=O)c1cc(-c2nc3ccccc3n2C)n(C)c1	-10	81	i	0.89	19	116	-0.9
Cc1cc(C(=O)N/N=C/c2ccccn2)n[nH]1	-4	100	i	0.95	0	115	.
CCn1c(P(C)(=O)O)nc2cc(NC(=O)c3ccccc3Cl)ccc21	-14	101	i	0.94	.	.	.
O=C1CC(N2CCc3ccccc32)C(=O)N1c1ccccc1 (stereo not given)	.	94	i	0.93	.	.	.
COc1cc2c(C#N)c(N3CCN(c4ccccc4OC)CC3)nc(N)c2c(N)n1	4	101	i	1.1	.	.	2.1
COc1cc(/C=C2\SC(=O)N(CCNC(=O)c3sc4cc(F)ccc4c3Cl)C2=O)cc(OC)c1OC	-2	103	i	0.99	.	.	.
COC(CN1CCc2c(C)nc3c(C#N)cnn3c21)OC	-3	100	i	1	.	.	.
CCOC(=O)CSc1nnc(CNC(=O)c2cccs2)n1Cc1ccccc1	7	100	i	0.95	.	.	-2.6
Cc1ccccc1NC(=O)COC(=O)CCSc1ccccc1	-2	103	i	0.95	43	105	.
Cc1nn(Cc2ccccc2Cl)c(C)c1NC(=O)NC12CC3CC(CC(C3)C1)C2	-1	79	i	0.92	30	119	-1.9
CCOC(=O)c1sc(NC(=O)c2ccc(S(=O)(=O)N(C)C)cc2)nc1C	-11	97	i	0.89	i	53	-0.2
CCOc1ccccc1/C=N/NC(=O)CSc1n[nH]c(=O)[nH]c1=O	11	101	i	1.2	6	88	.
Cc1cc(C(=O)Nc2ccc(Cl)cc2)c(C)n1Cc1cccs1	.	96	i	0.82	.	.	.
CCC1CCC2(CC1)NC(=O)N(CC(=O)c1c(C)[nH]c3ccccc13)C2=O (stereo not given)	-3	99	i	1.1	.	.	-1.5
COc1ccc2c(c1)c1nc3ccccc3nc1n2Cc1ccc(OC(C)C)c(OC)c1	5	101	i	1.2	-76	126	0.3
CCOC(=O)c1sc2ncnc(N3CCN(C(=O)OCC)CC3)c2c1C	-6	101	i	0.96	-41	104	0.3
C/C(=N\Nc1cccc2cccnc12)c1ccc(N)cc1	5	98	i	1	40	135	.
Cc1ccc(NC(=O)C(C)Sc2nnc(-c3cccnc3)o2)cc1 (stereo not given)	-16	101	i	0.91	.	.	-1.2
COc1ccc2c(c1)-c1c(ssc1=S)C(C)(C)N2S(=O)(=O)c1ccc(C)cc1	2	100	i	0.76	10	80	-2.1
Fc1ccc(COc2ccccc2CNCc2ccncc2)cc1	-6	91	i	1	50	95	0.2
COc1ccc([N+](=O)[O-])cc1NC(=O)C(C)OC(=O)c1ccccn1 (stereo not given)	-3	101	i	1	.	.	.
CN1CCN(c2nc(Nc3cccc(C(F)(F)F)c3)nc(N3CCOCC3)n2)CC1	-11	99	i	0.65	.	.	0.5
CCCCOc1ccc(NC(=O)CSc2cccc3cccnc23)cc1	2	94	i	0.87	-23	165	0.5
Cc1ccc(NC(=O)CN2C(=O)S/C(=C\c3cc(C)n(-c4cccc(C(=O)O)c4)c3C)C2=O)cc1	-2	93	i	1.1	.	.	.
CCN(CCNC(=O)C1=C(C)C(=O)OC12CCC(C)CC2)c1ccccc1 (stereo not given)	.	97	i	1.2	.	.	.
CCOC(=O)C(C(=O)NCc1ccc(C)cc1)c1ncc(C(F)(F)F)cc1Cl (stereo not given)	-9	111	i	0.93	-6	108	-2.0
COc1ccc(CNC(=O)C(=O)NCC2OCCN2S(=O)(=O)c2ccc3c(c2)OCCO3)cc1 (stereo not given)	-3	.	i	0.98	-48	71	-1.0

An excerpt from above in order of their number in PKD1 kinase inh, descending:
SMILES	PKD1 kinase inh
COc1ccc2c(c1)c1nc3ccccc3nc1n2Cc1ccc(OC(C)C)c(OC)c1	5
Cc1ccc(NC(=O)CN2C(=O)S/C(=C\c3cc(C)n(-c4cccc(C(=O)O)c4)c3C)C2=O)cc1	-2
COc1ccc(CNC(=O)C(=O)NCC2OCCN2S(=O)(=O)c2ccc3c(c2)OCCO3)cc1 (stereo not given)	-3

(further entries)
SMILES	PKD1 kinase inh	RGS16-Gao HTS	HSV replic up	HSV replic up primary fold	INS promoter inh	INS promoter inh cell count	GALR2 ag
O=S(=O)(c1ccccc1)c1cccc(S(=O)(=O)N2CCCCC2)c1	-4	87	i	1.1	.	.	-3.3
CCn1c(SCC(=O)c2ccc(OC)cc2)nnc1C(C)NC(=O)c1ccc(OC)cc1 (stereo not given)	-9	104	i	1.1	8	120	-2.2
COc1ccc(C2C(C(=O)Nc3ccccn3)=C(C)Nc3ncnn32)c(OC)c1 (stereo not given)	-9	100	i	0.91	.	.	-1.7
CCn1nnnc1Oc1ccc(Cl)cc1	-5	102	i	1.1	i	65	-1.2
CC[N+](C)(CC)CC(=O)OCC1C(C)C=C(C)CC1C (stereo not given)	.	94	i	1.1	.	.	.
CC(C)C(=O)N1CCN(c2c(Cl)cccc2[N+](=O)[O-])CC1	0	101	i	0.83	-47	83	-0.9
CCOCCCNC(=O)N[C@H](C(=O)OC)C(C)CC (stereo not given in full)	.	102	i	0.97	.	.	.
COc1ccc(C(=O)NCC(=O)OCc2ccccc2F)cc1	3	102	i	1.1	.	.	.
O=C(CN1C(=O)NC2(CCc3ccccc3C2)C1=O)NCc1ccco1 (stereo not given)	4	115	i	0.88	-55	136	.
O=C(Nc1ccccc1)c1cccnc1NCCc1ccccc1	-10	119	i	1.1	.	.	0.6
COc1ccc(-c2cc(N3C(=O)Nc4ccccc4N3O)n[nH]2)cc1OC	-4	100	i	0.89	39	119	-2.2
COc1ccc(C(=O)Nc2ccc(-c3nnn(CC(=O)NCc4ccco4)n3)cc2)cc1	.	100	i	0.74	.	.	.
Cc1ccc(NC(=O)CSc2nnc(-c3cccnc3)n2CCN2CCCCC2)cc1	-1	110	.	.	-8	84	0.6
CC(C)OCCCNC(=O)CCN1C(=O)COc2ccccc21	-6	98	i	1.1	9	134	-0.9
CCOC(=O)NNC1CC(=O)N(c2ccc(OC)cc2)C1=O (stereo not given)	6	97	i	1.1	.	.	-1.9

Individual results from the list:
Cc1ccc(NC(=O)CSc2nnc(-c3cccnc3)n2CCN2CCCCC2)cc1 – RGS16-Gao HTS: 110
CC[N+](C)(CC)CC(=O)OCC1C(C)C=C(C)CC1C (stereo not given) – HSV replic up primary fold: 1.1
CC(C)OCCCNC(=O)CCN1C(=O)COc2ccccc21 – INS promoter inh cell count: 134
COc1ccc(-c2cc(N3C(=O)Nc4ccccc4N3O)n[nH]2)cc1OC – RGS16-Gao HTS: 100

(continued)
SMILES	PKD1 kinase inh	RGS16-Gao HTS	HSV replic up	HSV replic up primary fold	INS promoter inh	INS promoter inh cell count	GALR2 ag
S=C(Nc1ccccc1)Nc1ccc(Br)cc1	.	99	i	0.93	.	.	.
O=C(COC(=O)Cc1ccccc1[N+](=O)[O-])NCc1ccc(Cl)cc1	9	101	i	1	0	107	0.1
CC/C=C\[C@H](O)[C@H](O)C1=C(C)C(=O)[C@]2(O1)C(=O)N[C@@](OC)(C(=O)c1ccccc1)C2O (stereo not given in full)	-1	98	i	0.97	.	.	.
CCOC(=O)c1c(NC(=O)COC(=O)c2c(C)noc2C)sc2c1CCC2	-16	78	i	0.85	-7	85	0.1
O=C(O)C1CC=CCC1C(=O)N1CC=C(c2ccccc2)CC1 (stereo not given)	3	80	i	1	.	.	.
N#Cc1ccccc1Cn1cc(/C=C/[N+](=O)[O-])c2ccccc21	3	94	i	0.67	-24	75	-0.6
COc1ccc(C(=O)/C(=C\c2ccco2)N2C=CC=CC2=C(C#N)C#N)cc1	-3	101	i	0.58	-6	3	-1.4
O=C(Nc1ccc2c(c1)OCCO2)C1CCN(S(=O)(=O)c2ccccc2)CC1	6	77	i	0.89	-20	70	.
O=C(NCCCn1ccnc1)c1noc2c1CCc1ccccc1-2	-12	97	i	1	.	.	-2.7
Cc1ccccc1NC(=S)NC(C)C(c1cccs1)N1CCOCC1 (stereo not given)	-6	105	i	1	-17	71	-1.7
CCOC1=NN(c2ncc(C(F)(F)F)cc2Cl)C(=O)C1	-3	108	i	0.74	38	111	.
COCCn1c(Sc2ccc(C)cc2)nc2c1c(=O)[nH]c(=O)n2C	0	101	i	0.81	27	66	-1.6
COc1cc(C(=O)OCC(=O)N(C)Cc2ccccc2)cc(OC)c1OC	-13	89	i	0.92	-16	126	-2.7
CC(C)n1c(O)c(N=Nc2ccc(Cl)c(C(=O)O)c2)c2ccccc21	.	102	i	0.97	.	.	.
CSc1ncc(S(=O)(=O)c2ccccc2)c(=O)[nH]1	2	102	i	1	.	.	.
O=C1OCCN1C(=O)[C@H]1[C@H](c2ccc(Cl)cc2)C(c2cccc(Cl)c2)=NN1c1ccccc1	-1	104	i	0.96	41	98	23*
CSc1nc2c(c(-c3ccc(O)cc3)c1C#N)CCC2	-7	95	i	0.96	-50	93	-2.9
Cc1oc(-c2ccc3ccccc3c2)nc1CN(C)C(C)c1ccncn1 (stereo not given)	-2	101	i	0.82	-100	83	.
Cc1cc(C)nc(SCC(=O)OCN2C(=O)c3ccccc3C2=O)n1	10	98	i	1.1	-38	112	-0.8
OCC1(Cc2ccccc2)CCN(Cc2ccc(C(F)(F)F)cc2)CC1	-3	101	i	1.1	.	.	.
O=S(=O)(c1ccc2nc(SCc3cccc(Cl)c3)[nH]c2c1)N1CCOCC1	12	103	i	0.84	2	97	-1.3
O=C(Cc1cc(=O)[nH]c(=O)[nH]1)NCC1CCCO1 (stereo not given)	-6	65	i	1	.	.	-3.4
O=C(Nc1ccccc1N1CCCCC1)c1cccc(F)c1	33	106	i	0.98	-6	93	-0.2
O=C(NNC(=O)c1cccs1)c1ccc2ccccc2c1	-3	101	i	0.96	.	.	.
O=C(COC(=O)CC(c1ccccc1)c1ccccc1)Nc1cccc(F)c1	1	96	.	.	.	.	-0.9
Cn1cnc(S(=O)(=O)Nc2ccc(OC(F)(F)F)cc2)c1	-7	102	i	1	.	.	.
Cc1ccccc1N(C)S(=O)(=O)c1ccc2[nH]cc(C(=O)NCC3CCCO3)c(=O)c2c1 (stereo not given)	-8	97	i	1.1	-19	128	-1.8
COc1cc([N+](=O)[O-])ccc1N	7	101	i	0.98	-44	98	-0.1
O=C(O)c1ccc(NCCC2=CCCCC2)c([N+](=O)[O-])c1	2	104	i	0.89	-8	113	.
CCOC(=O)c1nnn(CC(=O)Nc2cc(F)ccc2F)c1C(=O)OCC	-8	101	i	1	0	111	-2.4
OCc1cn(-c2ccccc2)nc1-c1cccnc1	-24	101	i	0.95	-33	75	-2.1
CCn1c(SCC(=O)N/N=C/c2cc(OC)c(O)c(OC)c2)nc2ccccc21	1	123	i	0.93	3	67	-0.7
O=C(COc1ccccc1CNCc1ccccc1)Nc1ccccc1	0	99	i	1	.	.	-0.7
COc1ccc(C(=O)N2CCCC2)cc1S(=O)(=O)N1CCOCC1	5	90	i	1.1	12	103	-1.7
CC(=O)OCC(=O)N1N=C(c2ccc3ccccc3c2)CC1c1ccccc1 (stereo not given)	2	99	i	0.9	.	.	.
Cc1ccc(CNC(=O)COC(=O)Cn2nc(C)c([N+](=O)[O-])c2C)cc1	8	100	i	1.1	6	125	.
CC(C)CNC(=O)NC(=O)COC(=O)c1cc([N+](=O)[O-])ccc1NCc1ccccc1Cl	8	100	i	0.75	18	130	.
Cc1[nH]n(-c2ccccc2)c(=O)c1/C=N/NC(=O)c1cccc([N+](=O)[O-])c1	1	97	i	0.87	-15	121	-3.0
C[C@@H]1CN(C2CCN(Cc3nc(C(c4ccccc4)c4ccccc4)no3)CC2)C[C@H](C)O1	-6	102	i	0.84	-40	109	.
NS(=O)(=O)c1ccc(CCn2c(=S)[nH]c3ccccc3c2=O)cc1	.	99	i	1	.	.	.
CCNC(=S)Nc1c(C)n(C)n(-c2ccccc2)c1=O	-6	106	i	0.99	.	.	.
CCOc1ccc(-c2c(C(=O)N/N=C/c3ccc(C)cc3)nnn2-c2nonc2N)cc1	.	96	i	0.89	.	.	.

A stretch of the results above:
SMILES	PKD1 kinase inh	RGS16-Gao HTS	HSV replic up	HSV replic up primary fold	INS promoter inh	INS promoter inh cell count	GALR2 ag
CCOC(=O)C1=C(C)Nc2sc(C(=O)c3ccc(F)cc3)c(N)c2C1c1ccc(C(=O)OC)cc1 (stereo not given)	4	104	i	1.2	.	.	-0.8
Cc1ccc(N(CC(O)Cn2c3ccccc3c3ccccc32)S(C)(=O)=O)c(C)c1 (stereo not given)	9	105	i	0.75	-37	129	-0.9

Screening data as filed in PubChem BioAssay.
